Screening data as filed in PubChem.
CtBP-E1A inh: inhibitors of CtBP/E1A interaction. AlphaScreen GST-E1A/His-CtBP binding, 1536-well; hits give low values; control for the full effect not named in the record. activity change, % (concentration not given with the values). actives 0.49% (n = 340,000). AID 651724; in the data active means activity change below about -65%; inconclusive means about -30% to -65%; inactive means above about -30%; further: on the % scale 0 is the no-effect control and ±100 the full control effect
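Steps: dispense buffer (Tris pH 8.0, NaCl 300 mM, TCEP 1 mM, BSA, Tween 20); add 5X protein mix (GST-E1A, His-CtBP, 125 nM each); pin 23 nL compound; 2 h at 37 °C, dark; add 5X beads (50 ug/mL); 1 h; read.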
PINK1 expr mod: PINK1 expression modulation; PINK1 immunofluorescence, high-content cytometry, 24 h; Potency, µM (series often up to 76.6 µM), for the others: at the top dose activation (PINK1 increase), actives largely listed as activators; actives 0.2% (n = 410,000); AID 624263; active = well fitted activation curve with a large enough effect; inconclusive = small, poorly fitted or top-dose-only effect; inactive = flat fitted curve, though single readings scatter; cell line not stated here;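 further: potency means the concentration at half of the fitted maximal effect; % of control where 0% means no effect; nearly all actives have a fitted effect of over 65% in size; a mitochondrial uncoupler was the plate control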
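Measures PINK1 amount and localization on or inside mitochondria by immunofluorescence. Stable cells get compounds at 5 concentrations for 24 hours before fixation and staining; CCCP controls included.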
D2 ag: agonists of human D2 dopamine receptor (beta-arrestin). activation, % (test concentration not listed). DiscoveRx PathHunter D2 beta-arrestin, luminescence, 90 min; 100% = 57 uM dopamine signal. actives 0.084% (n = 360,000). AID 624465. P14416; in the data active = activation above about 40%; inconclusive = about 15% to 40%; inactive = below about 15%; further: compound concentration not given in the record; the text of the record calls up to 30% inactive
Target sequence (P14416 whole entry, looked up): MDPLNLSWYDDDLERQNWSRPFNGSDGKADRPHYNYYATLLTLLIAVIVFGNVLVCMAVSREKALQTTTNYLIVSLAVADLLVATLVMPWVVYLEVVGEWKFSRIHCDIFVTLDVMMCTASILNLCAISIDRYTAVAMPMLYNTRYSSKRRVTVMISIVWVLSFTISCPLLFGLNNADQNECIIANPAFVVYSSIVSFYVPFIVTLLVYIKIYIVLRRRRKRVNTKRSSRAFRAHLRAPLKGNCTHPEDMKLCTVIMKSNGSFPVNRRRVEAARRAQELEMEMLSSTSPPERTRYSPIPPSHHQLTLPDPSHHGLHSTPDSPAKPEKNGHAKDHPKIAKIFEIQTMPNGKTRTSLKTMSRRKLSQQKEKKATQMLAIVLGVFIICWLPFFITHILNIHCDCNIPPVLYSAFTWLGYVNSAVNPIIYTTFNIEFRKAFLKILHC
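Agonist mode: compounds alone added to overnight-plated D2 PathHunter cells for 90 min at 37 C, with 57 uM final dopamine (EC100) defining full response. Beta-arrestin recruitment detected by chemiluminescent reagent, read after 1 h at ambient temperature.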
TRPML1 ag: agonists of human TRPML1 channel; Q9GZU1; TRPML1-expressing cells, Ca2+ dye fluorescence, FDSS; host cell line not named in the record; reference of the full effect not given here; activation, % (test concentration not listed); actives 0.12% (n = 410,000); AID 624414; in the data active = activation above about 50%; inconclusive = about 30% to 50%; inactive = below about 30%; further: 0% is about no effect; the text of the record puts the active cut at 80%
Target sequence (Q9GZU1 whole entry, looked up): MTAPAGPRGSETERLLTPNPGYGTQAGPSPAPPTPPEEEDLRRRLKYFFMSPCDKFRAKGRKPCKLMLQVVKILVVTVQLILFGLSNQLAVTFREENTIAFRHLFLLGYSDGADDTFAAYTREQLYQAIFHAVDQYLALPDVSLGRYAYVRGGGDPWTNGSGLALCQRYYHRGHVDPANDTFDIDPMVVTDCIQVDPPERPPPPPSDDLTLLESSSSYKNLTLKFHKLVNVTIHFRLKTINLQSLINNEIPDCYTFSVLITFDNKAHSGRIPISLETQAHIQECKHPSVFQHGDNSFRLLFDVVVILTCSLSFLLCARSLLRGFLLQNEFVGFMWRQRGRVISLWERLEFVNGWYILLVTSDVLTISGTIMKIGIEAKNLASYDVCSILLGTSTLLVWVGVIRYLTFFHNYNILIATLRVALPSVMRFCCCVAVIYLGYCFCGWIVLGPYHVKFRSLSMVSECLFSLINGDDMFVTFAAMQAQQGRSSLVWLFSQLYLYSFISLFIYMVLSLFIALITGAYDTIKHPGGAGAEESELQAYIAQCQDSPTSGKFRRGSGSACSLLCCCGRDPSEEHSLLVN
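Cells: TRPML1-DL, 1X Tet inducer, ~16 h at 37 degrees C/5% CO2. Dye: ABD Ca8 no-wash + quencher, 45-90 min RT. Read: 10 s baseline, compound add, 110 s agonist phase; 54-4 EC80 (4uM final), 110 s antagonist phase.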
D2 PAM: human D2 receptor positive allosteric modulation | actives 0.23% (n = 360,000) | potentiation, % (no concentration beside the values) | DiscoveRx D2 beta-arrestin cells, luminescence, 90 min; 100% = 57 uM dopamine signal | AID 624464 | P14416; active = potentiation of 50% or more; inconclusive = 30% to 50%; inactive = 30% or less;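 further: compound concentration not given in the record; tested on top of an EC20 dose of dopamine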
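PathHunter beta-arrestin assay in DiscoveRx D2 cells. Compounds were added with an EC20 of dopamine (50 nM final) for 90 min at 37 deg C. Luminescence was read 1 h after detection reagent, with 57 uM dopamine as the EC100 control.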
Six1-Eya2 blk: blocks human Six1 binding to Eya2; Q15475+O00167; AlphaScreen GST-Six1/His-Eya2 binding, biochemical; hits give low values; control for the full effect not named in the record; activity change, % (test concentration not listed); actives 0.56% (n = 360,000); in the data active = activity change below about -65%; inconclusive = about -30% to -65%; inactive = above about -30%; further: on the % scale 0 is the no-effect control and ±100 the full control effect; compound concentration not given in the record
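GST-Six1 + His-Eya2 (5X stock: 250/500 nM); Tris pH 8.0, 300 mM NaCl, 0.05% BSA, 0.02% Tween 20; GSH donor/Ni acceptor beads; 1 h 37 °C dark; AlphaScreen readout.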
Starred values were filed as active, the others as inactive; ? = inconclusive; · = not tested or not shown; & = joins results of further samples; [ ] = dose if it differs, or a comment.

SMILES	CtBP-E1A inh	PINK1 expr mod	D2 ag	TRPML1 ag	D2 PAM	Six1-Eya2 blk
CCOc1ccc(N2CC(C(=O)Nc3cc(Cl)ccc3-n3cncn3)CC2=O)cc1 (stereo not drawn)	5	1.6%	-4.4	0.4	-1	10
Cc1cc(NC(=O)COC(=O)C2=COCCO2)c([N+](=O)[O-])cc1C	5	1.0%	1.3	4.0	2	-2
COc1ccc(C(=O)N/N=C2\CCc3ccccc32)cc1OC	3	0.9%	13	0.2	-10	4
O=Cc1ccccc1OCCOc1ccc([N+](=O)[O-])cc1	9	1.8%	-4.2	2.1	-1	4
CCCCCCc1ccc(N2C[C@H](CCCCC)[C@@H](CC(=O)NCc3ccc(OC)cc3)C2=O)cc1	3	7.2%	-2.0	-0.2&0.6	-6	4
CC(=O)Nc1ccc(NC(=O)C2Cc3c(-c4ccc5c(c4)OCO5)ccnc3O2)cc1 (stereo not drawn)	-4	2.4%	-1.4	-0.6	-11	-2
O=C(c1ccc(Br)o1)N1CC=C(c2ccccc2)CC1	0	-1.0%	2.4	-0.1	-13	-13
Fc1ccc(-c2nnc(-c3ccc4ccccc4c3)o2)cc1	12	-1.9%	-2.9	1.2	-8	0
COc1cccc(-c2ccc(SCC(=O)NCCc3ccccc3)nn2)c1	0	1.8%	-5.1	-1.1	-9	0
Cc1cc(C)c(NC(=S)N(CCN(C)C)C(C)c2cccnc2)c(C)c1 (stereo not drawn)	-7	-1.3%	-3.8	-0.4	-6	1
Cc1ccc(S(=O)(=O)N(C)C(=O)NC(=O)NS(=O)(=O)c2ccccc2)cc1	-20	0.2%	-1.9	-0.7	-9	5
O=C(Cn1c2[n+](c3ccc(C(F)(F)F)cc31)CCCCC2)c1ccc2c(c1)OCCO2	·	1.1%	-8.4	-0.2	-13	-9
Cc1ccc2c(c1)c1c3n2CCN=C3CCC1	-2	-5.5%	-3.5	-0.9	-5	-2
CCNC(=O)N(C)C[C@H]1N[C@@](Cc2ccccc2)(C(=O)OC)[C@H]2C(=O)N(C)C(=O)[C@@H]12	6	-0.4%	-2.3	1.1	-8	9
O=C(COc1ccc2ccc(=O)oc2c1)OCc1ccccc1	·	0.6%	4.5	1.1	-5	1
CCCCc1nc2sc3c(=O)n(N)cnc3c2c2c1CCCC2	·	2.5%	-3.5	-0.2	-4	-16
COc1ccc(/C=C(\NC(=O)c2ccc([N+](=O)[O-])cc2)C(=O)N2CCOCC2)cc1	-2	1.4%	-1.6	0.3	1	6
COc1ccc(C(=O)NC(=S)NNC(=O)[C@H]2C[C@@H]2c2ccccc2)cc1OC	-14	3.7%	-2.2	0.5	-13	-20
COc1ccc(CC(=O)OC(C)C(=O)Nc2c(C)n(C)n(-c3ccccc3)c2=O)cc1OC (stereo not drawn)	5	-1.1%	-5.2	-0.4	-3	-3
c1ccc(CNCc2ccco2)cc1	-2	-0.5%	-5.1	0.4	-1	3
CSc1nnc(CCNS(=O)(=O)c2ccc(Br)cc2)n1C	0	4.2%	-3.2	-1.1	-9	12
CCCCCOc1ccc(NC(=O)CSc2cccc3cccnc23)cc1	-95*	1.7%	-3.8	0.1	-3	-92*
CC1(C)CC(=O)C2=C(C1)c1c(ccc3ccccc13)NC2c1ccco1 (stereo not drawn)	-2	?	-0.8	1.2	-4	0
CC(SC1CCCC1)C(=O)Nc1ccnn1C(C)C (stereo not drawn)	6	1.3%	0.6	-1.4	6	6
Cc1cccc(NC(=O)NNC(=O)c2ccc3ccccc3c2)c1	3	1.5%	-2.0	-0.1	-12	0
O=C(COc1ncnc2scc(-c3ccc(Cl)cc3)c12)NCc1ccco1	-1	-0.2%	-4.3	-0.6	-9	-10
O=C(CCC(=O)N1CCOCC1)NCCc1ccccc1	1	1.4%	12	-0.1	-13	-1
COCCSc1nnc(-c2cccc(C#N)c2)n1C	-10	-1.7%[38.3 µM]	-2.2	0.4	-10	-1
CCn1ncc(/C=N/NS(=O)(=O)c2ccc(Cl)cc2)c1C	3	2.0%	1.2	-0.3	0	9
COC(=O)c1ccc(NC(=O)CSc2nc(N)c(NC(=O)c3ccc(Br)o3)c(=O)[nH]2)cc1	-65*	1.1%	-8.0	0.8	-9	-66*
Cc1ccc(NC(=O)CCCC(=O)O)c(Br)c1	2	0.1%	-1.6	-0.6	7	8
CCCCCC(=O)Nc1ccc(Cl)cn1	13	-2.4%[38.3 µM]	-0.9	4.2	-10	3
Cc1nc(SC(C)C(=O)c2c(N)n(C)c(=O)n(C)c2=O)c2c(C)c(C)sc2n1 (stereo not drawn)	-4	0.3%	-7.9	3.5	-18	-8
Cc1ccc2c(C)c(C(=O)N3CCN(c4cnccn4)CC3)oc2c1C	0	3.7%	-1.9	1.3	4	-8
COc1ccc(CN2C(=O)C(CC(=O)NCCCN(C)C)CC(C(=O)N(C(C)C)C(C)C)=C2C)cc1 (stereo not drawn)	-1	-1.1%	-2.6	-0.5	4	7
O=C(OCC(=O)N1CCC(c2ccccc2)=N1)c1ccc([N+](=O)[O-])s1	-21	7.3%	14	0.4	?	-22
COc1cccc(-c2nnc(SCC(=O)N3CC(C)CC(C)C3)o2)c1 (stereo not drawn)	-23	-2.9%	0.0	2.4	-2	7
CSc1nnc(NC(=O)c2ccc(S(=O)(=O)N3CCOCC3)cc2)s1	12	-3.5%	-2.3	0.7	20	1
O=c1[nH]c(S)nc2sc3c(c12)CCCC3	-30	-0.1%	-7.4	1.1	1	0
CC(C)(C)c1ccc(OCC(=O)NN2Cc3ccccc3C2=N)cc1	12	-1.3%	-4.3	0.0	-13	-6
CCOn1c(=O)c(-c2cccc([N+](=O)[O-])c2)[n+]([O-])c2ccccc21	14	2.4%	-1.7	2.0	-11	-2
Cc1cc(NC(=O)CS(=O)(=O)c2c[nH]c3ccccc23)no1	7	-0.3%	1.6	-0.2	-4	11
Cc1ccc(NC2=C(Cl)C(=O)OC2OC(=O)c2ccc(C)cc2)cc1 (stereo not drawn)	2	1.5%	-4.2	2.6	-4	3
Cc1oc(-c2cccc(Cl)c2)nc1CN1CCC(C(=O)NCC2CCCO2)CC1 (stereo not drawn)	5	·	-0.8	0.3	-30	3
COc1ccc(C)cc1S(=O)(=O)Nc1cccc(-c2cn3cccnc3n2)c1	15	0.4%	2.4	0.5	10	-16
CN(C(=O)c1ccccc1)C(=O)c1ccccc1	-25	0.0%	-1.1	-0.2	-11	11
O=C1c2ccccc2C(=Nc2ccccc2)C1c1cccc(Br)c1 (stereo not drawn)	-24	?	-0.4	1.9	-1	-23
CC(=O)c1ccccc1NC(=O)COc1ccc(N(C)S(=O)(=O)c2ccc(C)c(C)c2)cc1	-22	2.5%	3.2	3.6	-1	0
Cc1ccsc1C(=O)OCC(=O)NC1CCS(=O)(=O)C1 (stereo not drawn)	·	1.2%	-5.0	0.6	-5	14
CCc1nnc(NC(=O)CCC(=O)NCCc2ccc(OC)c(OC)c2)s1	-9	-1.2%	-4.4	0.0	-20	3
O=C(Nc1cnn(Cc2ccc(F)cc2)c1)c1cc(-c2cccs2)on1	4	?	1.7	-0.5	-1	0
Cn1c(NCCc2ccncc2)nc2cc(-c3ccccc3)sc2c1=O	-23	2.2%	-4.9	0.6	-26	6
Cc1cc(=O)oc2c(C)c(OCC(=O)N(C)C)ccc12	-1	1.1%	-1.2	0.7	-16	-6
CC(=O)Nc1ccc(S(=O)(=O)N2CCN(C(=O)c3ncoc3-c3ccccc3F)CC2)cc1	-12	2.2%	-1.8	-0.3	-12	3
COc1ccc(Nc2ccccc2C(=O)O)cc1	-17	-0.1%	-1.7	-0.3	7	10
O=C(CNC(=O)c1ccccc1)OCC(=O)N1c2ccccc2Sc2ccccc21	21	-1.5%	-3.9	0.1	-36	-8
O=c1c(Cc2ccc(F)cc2)c(O)ccn1Cc1cccc(Cl)c1	-13	0.3%	-1.9	-0.4	-37	-2
O=C(/C=C/c1cc(Br)ccc1F)Nc1cccnc1	0	2.9%	-0.5	0.2	0	8
CCn1cc(C(=O)N[C@@H](CC(C)C)C(=O)NCCCn2ccnc2)c(=O)c2cc3c(cc21)OCO3	-18	-0.9%	-4.7	-0.3	-5	-4
Cc1cccc(C2NC(=O)c3c(sc(C)c3C)N2)c1O (stereo not drawn)	-4	-0.9%[38.3 µM]	-0.2	-0.2	-14	-1
Additional entries follow:
SMILES	CtBP-E1A inh	PINK1 expr mod	D2 ag	TRPML1 ag	D2 PAM	Six1-Eya2 blk
Cc1cc(C)nc(N/N=C/c2ccc(Cl)cc2)n1	·	1.3%	0.2	1.2	10	3
COc1ccc(-c2cc(=O)oc3cc(OC(C)C(=O)NC(Cc4c[nH]c5ccc(O)cc45)C(=O)O)ccc23)cc1 (stereo not drawn)	-14	0.8%	4.0	·	-14	-29
CCCN(CCC)S(=O)(=O)c1ccc(C(=O)Nc2cc3oc4ccccc4c3cc2OC)cc1	6	2.7%	-1.7	0.6	-8	9
CCOC(=O)Cn1cnc2scc(-c3ccccc3)c2c1=O	5	1.1%	-4.2	0.2	-8	-11
O=C(Cn1c(CN2CCCCC2)nc2ccccc2c1=O)NCc1ccco1	8	·	-1.0	-0.4	-8	1
COCCn1c(C)cc(C(=O)CSc2nnc(C3CC3)n2C2CC2)c1C	9	-0.1%	-2.4	-0.4	-4	-1
Cc1ccc(OCCCCN2CCCCC2)cc1	·	-0.1%	0.2	-0.5	-35	2
Nc1nc(NCC2CCCO2)nc(Nc2ccccc2F)c1[N+](=O)[O-] (stereo not drawn)	·	6.5%	-2.3	1.4	-2	-4
O=C(NN=C1C2CC3CC(C2)CC1C3)c1cc(Cl)ccc1O	-26	-0.5%	-1.1	1.7	16	-20
COc1ccccc1N1CCN(C(=O)c2cn(C)c3ccc(S(=O)(=O)N4CCOCC4)cc3c2=O)CC1	-2	-1.1%&2.9%	1.4	-0.1&-0.1	-5	-3
N#Cc1ccccc1OCC(=O)Nc1ccc(N2CCOCC2)cc1N1CCOCC1	2	-0.5%	-2.1	0.0	-3	-2
CCN1CCN(C(=O)CN(c2cc(OC)ccc2OC)S(C)(=O)=O)CC1	-1	0.3%	-1.3	-0.4	-6	0

A second format for part of the listing above.
SMILES: Nc1nc(NCC2CCCO2)nc(Nc2ccccc2F)c1[N+](=O)[O-] (stereo not drawn)
  CtBP-E1A inh: ·	PINK1 expr mod: 6.5%	D2 ag: -2.3	TRPML1 ag: 1.4	D2 PAM: -2	Six1-Eya2 blk: -4

SMILES: O=C(NN=C1C2CC3CC(C2)CC1C3)c1cc(Cl)ccc1O
  CtBP-E1A inh: -26	PINK1 expr mod: -0.5%	D2 ag: -1.1	TRPML1 ag: 1.7	D2 PAM: 16	Six1-Eya2 blk: -20

SMILES: COc1ccccc1N1CCN(C(=O)c2cn(C)c3ccc(S(=O)(=O)N4CCOCC4)cc3c2=O)CC1
  CtBP-E1A inh: -2	PINK1 expr mod: -1.1%&2.9%	D2 ag: 1.4	TRPML1 ag: -0.1&-0.1	D2 PAM: -5	Six1-Eya2 blk: -3

SMILES: N#Cc1ccccc1OCC(=O)Nc1ccc(N2CCOCC2)cc1N1CCOCC1
  CtBP-E1A inh: 2	PINK1 expr mod: -0.5%	D2 ag: -2.1	TRPML1 ag: 0.0	D2 PAM: -3	Six1-Eya2 blk: -2
